Assay outcomes as filed in PubChem.
CSC inhib = cancer stem cell viability inhibitors, primary screen, luminescence; inhibition, % at 7.5 µM; AID 2717, 2010; actives 1.1% (n = 300,000); cancer stem cell-like cells viability;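 active = mean at 75% or more and at least half the replicates too; inconclusive = mean and replicates disagree; tested in HMLE shEcad cells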;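 note: 0% = median of negative and 100% = median of positive control wells; the first replicate is given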
Rce1 inhib = yeast Rce1p protease inhibitors, primary screen, biochemical, fluorescence, cell-free homogeneous; yeast membranes, quenched prenylated peptide cleavage fluorescence; calls only; actives 0.27% (n = 290,000);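 active = fall in fluorescence gain of 50% or more versus controls, with final raw signal at or below 3038400; inconclusive = same 50% fall but final raw signal above 3038400; inactive = fall in fluorescence gain under 50%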;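 note: plate controls were neutral control wells for no effect and wells lacking membranes for full effect; tested at 10 µM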
Target sequence (Q03530 whole entry, looked up): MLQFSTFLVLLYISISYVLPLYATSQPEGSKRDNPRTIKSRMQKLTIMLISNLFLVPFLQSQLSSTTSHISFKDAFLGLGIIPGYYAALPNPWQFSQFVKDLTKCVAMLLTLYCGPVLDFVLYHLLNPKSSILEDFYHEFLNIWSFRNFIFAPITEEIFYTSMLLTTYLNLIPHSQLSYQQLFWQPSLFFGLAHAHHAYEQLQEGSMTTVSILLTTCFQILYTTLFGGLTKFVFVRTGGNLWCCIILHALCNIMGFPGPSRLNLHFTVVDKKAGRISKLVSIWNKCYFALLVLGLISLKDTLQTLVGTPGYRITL
eIF4H inh = human eIF4H binding inhibitors, primary screen, translation initiation inhibitor project, biochemical, uHTS, fluorescence polarization; actives 0.94% (n = 290,000); eIF4H fluorescence polarization binding assay; inhibition, % at 35 µM;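 active = 50% or more with normal probe brightness, or confirmed in later tests; inconclusive = above 50% with abnormal brightness, or retests that disagree; inactive = below 50% or failed in later tests; about a fifth of its hits are not listed in these tables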;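 note: calls also rest on retests at 20 µM and on dose response follow-up; 0% = protein and probe with vehicle and 100% = probe without protein; strong numbers were not always called active; many hits fall short of the cut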
Yeast UUG start = modulators of yeast start codon fidelity, primary screen, whole organism, S. cerevisiae, single point, plate reader; S. cerevisiae UUG-firefly luciferase reporter, luminescence/redox ratio; activity score, % at 18.7 µM; actives 0.13% (n = 350,000); AID 602363, 2012;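 active = replicate mean at a twofold rise or more, about +100% in these data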;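 note: firefly luciferase made from a UUG start codon reports start codon fidelity; reporter light over untreated wells divided by growth signal over untreated wells; some hits fall short of that in this replicate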
HIV Env fusion = inhibitors of HIV-1 Env-driven cell-cell fusion, primary screen, HeLa-JRFL effector, CEM21 target cells, luciferase; AID 651610, 2012; actives 1.1% (n = 360,000); inhibition, % at 12.3 µM;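 active = mean replicate inhibition score of at least 50 and every replicate individually at or above 50; inconclusive = only one of the two criteria met; inactive = mean below 50 and not all replicates reaching 50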;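 note: 0% = plate neutral controls and 100% = maraviroc near 300 nM; one replicate is shown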
PABP polyA inh = PABP poly(A) RNA binding inhibitors, primary screen, biochemical, fluorescence polarization, uHTS | Polyadenylate-binding protein 1 (Homo sapiens), P11940 | inhibition, % at 35 µM | actives 1% (n = 290,000) | AID 2014, 2009;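 active = 50% or more with normal probe brightness, or confirmed in later tests; inconclusive = above 50% with abnormal brightness, or retests that disagree; inactive = below 50% or failed in later tests; about a fifth of its hits are not listed in these tables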;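 note: calls also rest on retests at 20 µM and on dose response follow-up; controls were probe without protein and protein plus probe with vehicle; some compounds called inactive have numbers as strong as hits; many hits fall short of the cut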
MT1-MMP act inh = blockers of MT1-MMP proenzyme processing, primary screen, HT1080 RFP-PRO-GFP cells, GFP/RFP fluorescence | Matrix metalloproteinase-14 (Homo sapiens), P50281 | GFP/RFP ratio fluorescence, overnight; percent of plate control window, DMSO zero | GFP/RFP ratio change, % at 20 µM | actives 0.061% (n = 360,000) | AID 651647, 2012;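 active = GFP/RFP ratio change of at least 30% with cell ATP level not reduced by more than half and red fluorescence within 50% of control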; note: strong numbers were not always called active
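Assay system – RFP-PRO-GFP reporter HT1080 cells · Compound dosing – single dose of 20 µM compound, 1% DMSO final · Incubation – overnight compound exposure at 37 °C · Measure – GFP/RFP fluorescence ratio · Benchmarks – DMSO wells and RFP-L50D-GFP cells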
eIF4H inh retest = recorded beside eIF4H inh, whose call it bears; inhibition, %; compound at 20 µM; confirmation average;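 mean of two retest wells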
PABP polyA inh retest = recorded beside PABP polyA inh, whose call it bears; inhibition, %; compound at 20 µM; confirmation repeats;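 mean of two retest wells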
MT1-MMP act inh RFP = also measured in MT1-MMP act inh; calls as there; RFP signal change, %; measured here: RFP expression control read;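 0 = vehicle wells; hits needed this value within 50% of zero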
Numbers without * were called inactive; i = inactive; ? = inconclusive; · = no result given; & = joins results of further samples; [ ] = remark or other dose. Compounds as they come. Share with any hit: about 2.9%.

SMILES	CSC inhib	Rce1 inhib	eIF4H inh	Yeast UUG start	HIV Env fusion	PABP polyA inh	MT1-MMP act inh	MT1-MMP act inh RFP	others
O=C(NCC1CCCN(Cc2nccs2)C1)c1cccc2ccccc12 (stereo not given)	2	·	-9	-13	·	-8	-1	2
COc1cccc2sc(N(CCCN(C)C)C(=O)c3ccc(S(=O)(=O)N4CCCc5ccccc54)cc3)nc12	23	i	-12	-13	·	-12	-3	-3
O=C(Nc1ncc(Cc2cccc(Cl)c2)s1)c1ccc([N+](=O)[O-])cc1	-18	i	-5	-1	19	7	1	-6
COC(=O)C1CSC(C(=O)OC)N1C(=O)CN1CCN(c2ccccc2)CC1 (stereo not given)	-9	i	4	·	-7	-6	-3	-3
CCN(CC)C(=O)CSc1nc2ncc(Cl)cc2[nH]1	-3	i	3	4	·	-10	5	0
C[C@H]1CN([C@@H](C)CO)S(=O)(=O)c2ccc(C#CC3CC3)cc2O[C@H]1CN(C)C(=O)c1cccnc1	·	·	·	9&14&-3	16&13[16.7 µM]	·	5	6
O=C(c1cc(-c2ccc(Cl)cc2)n[nH]1)N1CCN(C(=O)c2ccco2)CC1	-22	i	-4	-4	7	-8	·	·
Cc1c(Cl)cccc1NC(=O)Nn1cnnc1	1	i	-5	-7	4	-14	1	3
CCn1c(C)c(C(C)=O)c(N2CCN(c3ccccn3)CC2)nc1=S	-17	i	66*	-22	·	67*	-3	1
S=C(c1c[nH]c2ccccc12)N1CCCC1	·	i	1	-23	-6	2	-2	4
CCc1cc(/C(Cc2ccc3ccccc3n2)=N\O)c(O)cc1O	19	i	-2	-3	·	-12	-9	-18
COc1cc(OC)cc(C(=O)NNC(=O)c2ccc(S(=O)(=O)N3CC(C)OC(C)C3)cc2)c1 (stereo not given)	1	i	-4	-15	32	-13	-3	2
COc1cc(CC(=O)OCC(=O)c2ccc3c(c2)OCCO3)cc(OC)c1OC	-4	i	-7	9	·	-2	16	-4
Cc1ccc(N(C(C)C(=O)N2CCCCC2)S(C)(=O)=O)cc1C (stereo not given)	-5	i	-18	-7	-48	-1	5	0
O=C(c1cn(CC(=O)N2CCCCC2)c2ccccc12)C1CC1	-9	i	-11	-15	4	-5	5	3
COc1ccc(/C=N/Nc2nc(-c3cccc(S(=O)(=O)N4CCCC4)c3)cs2)c(OC)c1	-9	i	-5	·	·	-3	-20	-33
CSCCC(NS(=O)(=O)c1cccc(C(F)(F)F)c1)C(=O)N(C)Cc1ccc2c(c1)OCCO2 (stereo not given)	1	i	-7	8	·	-3	1	-6
O=C(COC(=O)c1ncc(Cl)c(Cl)c1Cl)Nc1ccccc1OC(F)F	-9	i	-2	-7	14	-9	-3	-1
CS(=O)(=O)Nc1ccc(S(=O)(=O)N2CCCC2)cc1	-6	i	-11	·	-8	18	5	7
O=C(c1nn2c(C(F)(F)F)cc(-c3cccs3)nc2c1Br)N1CCCc2ccccc21	26	i	-9	·	26	9	-8	-8
Cc1ccc(-n2nc3c(=O)n(CC(=O)NCc4ccccn4)nc(C)c3c2C)cc1	11	i	-7	-17	4	2	5	0
CC(=O)Nc1ccc(SCC(=O)NC(=O)c2ccc(Cl)cc2)cc1	·	·	·	-18	-4	·	6	8
C[C@H](CO)N1C[C@H](C)[C@@H](CN(C)Cc2ccccc2)Oc2c(NC(=O)C3CC3)cccc2C1=O	3	·	·	-1&4	-90	·	-3	-2
Cc1ccc(OCc2ccc(-c3ccccc3)cc2)c([N+](=O)[O-])n1	39	i	0	-19	-11	4	3	-9
COC(=O)CNC(=O)c1c(-c2ccccc2Cl)noc1C	-12	i	1	13	·	0	0	5
Continued.
SMILES	CSC inhib	Rce1 inhib	eIF4H inh	Yeast UUG start	HIV Env fusion	PABP polyA inh	MT1-MMP act inh	MT1-MMP act inh RFP	others
Cc1cccc(C)c1NC(=O)C(Cl)=C(Cl)Cl	16	i	4	·	2	-2	1	6
CCC1=NN2C(=N)/C(=C/c3c(C)nn(-c4ccccc4)c3Cl)C(=O)N=C2S1	?	i	74*	·	-11	11*	0	1	eIF4H inh retest=90*;PABP polyA inh retest=63*
CCC(C)NC(=O)CCS(=O)(=O)c1ccc(Br)s1 (stereo not given)	-6	i	0	·	·	13	2	4
O=C(O)C(c1ccccc1)c1ccccc1	2	·	·	11	·	·	0	1
COc1ccc2cc(C#N)c(SCC(=O)NNC(=O)Cc3ccccc3)nc2c1	-7	i	7	-16	-90	-15	-7	2
CCOc1cc(/C=C2\N=C(SCC)SC2=O)cc([N+](=O)[O-])c1OC(C)=O	7	i	34	-23	-23	19	-2	3
COc1cc(-c2c(-c3ccc4c(c3)OCO4)noc2-c2ccsc2)ccc1F	31	i	-6	-21	35	2	-7	-6
COc1nc(-c2ccncc2)nc2ccccc12	-13	i	-5	-26	-74	-5	-3	5
Cc1[nH]n(C)c(=O)c1C(=O)c1c(-c2ccccc2Cl)noc1C	-11	i	6	-19	21	13	3	-5
COc1cccc(CNC(=O)c2ccc(C)c(NC3=NC4CS(=O)(=O)CC4S3)c2)c1 (stereo not given)	·	i	-3	-17	-15	-5	0	2
Cc1cc(C)nc(SCNC(=O)c2ccc(F)cc2)n1	·	i	-9	-10	·	-19	6	7
COc1ccc(CCn2c(=N)c(C(=O)NCC3CCCO3)cc3c(=O)n4ccccc4nc32)cc1OC (stereo not given)	-12	i	5	·	17	1	-4	-1
O=C(Nc1ccc(CN2CCOCC2)cc1)c1cccc(-c2cc3ccccc3oc2=O)c1	17	i	-7	·	-24	16	-6	-3
CCOc1ccc(/C=N/OCC(=O)NCc2ccc3c(c2)OCO3)cc1OC	·	i	-9	·	·	-8	0	-1
CCc1ccc(/C=N/NC(=O)c2cc(C)on2)s1	-7	i	3	·	·	-1	2	4
CCN(Cc1nc(-c2ccccc2)no1)C(=O)COc1cccc(OC)c1	9	i	2	6	19	0	4	11
CCOc1cc(/C=N/NC(=O)c2ccncc2)ccc1OC(=O)c1ccccc1	-15	i	-6	-11	·	3	0	1
Cc1ccc(NC(=O)c2nc[nH]c2C(=O)N[C@@H](C)C(=O)OC(C)(C)C)cc1	67	i	-3	-18	-24	8	3	1
CCOC(=O)C1=C(COC(=O)c2ccc([N+](=O)[O-])s2)NC(=O)NC1C (stereo not given)	4	·	·	4	-4	·	4	0
C(=N\N=C\c1cccnc1)/c1cccnc1	-5	i	-10	-1	·	7	-1	2
CN(CC(=O)Nc1ccc(N2CCOCC2)cc1)C(=O)C12CC3CC(CC(C3)C1)C2	-4	i	·	-10	-7	·	2	0
CN1CCN(CC(=O)C23CC4CC(CC(C4)C2)C3)CC1	·	i	3	-9	-80	14	4	5
Cc1ccc(S(=O)(=O)/N=C(\Nc2cc(C)on2)c2ccc(Cl)cc2)cc1	-11	i	3	-8	1	1	1	2
Cc1nc2cc(S(=O)(=O)N(C)C)ccc2n1-c1ccccc1	0	i	-1	-23	-2	2	-2	4
CCC1CCCCN1C(=O)CN1C(=O)CSC1=O (stereo not given)	2	i	0	-11	-8	5	-4	-2
Next section:
SMILES	CSC inhib	Rce1 inhib	eIF4H inh	Yeast UUG start	HIV Env fusion	PABP polyA inh	MT1-MMP act inh	MT1-MMP act inh RFP	others
CC(C)(C)[C@@H]1COC(=O)[C@@H](NC(=O)OCC2c3ccccc3-c3ccccc32)C/C=C\C[C@@H](CC(=O)NCCO)C(=O)N1	-5	·	·	-7	30	·	1	1
O=C(Nc1ccnn1C1CCN(C(=O)c2c(F)cccc2F)CC1)C1CC1	-5	i	-8	-16	-13	7	0	-4
O=[N+]([O-])c1ccccc1/C=N/Nc1nnc(-c2ccccc2)c(-c2ccccc2)n1	-5	i	-14	·	-69	-7	2	5
CC1CC(=O)N(c2ccc(C(C)C)cc2)C(=O)C1	4	i	3	-3	4	6	3	2
Cc1ccccc1N/C(SCc1cccc(Br)c1)=C(/C#N)C(N)=O	-4	i	-8	·	-4	13	-9	-13
COc1ccccc1-c1nnc(SC(C)C(=O)Nc2ccc(C(N)=O)cc2)o1 (stereo not given)	-3	i	·	·	-3	·	-1	2
COc1ccccc1C(=O)OCC(=O)NC12CC3CC(CC(C3)C1)C2	·	·	·	-9	-9	·	2	2
CN1c2ccccc2C(=O)C(=C2SCCCS2)S1(=O)=O	-23	i	-3	·	7	3	2	1
CCCNC(=O)Cn1cnc2sc(C(=O)N3CCN(c4ccc(F)cc4)CC3)c(C)c2c1=O	-2	i	1	10	-5	1	7	-3
O=C1C2C(C(=O)N1/N=C/c1cc([N+](=O)[O-])c(O)cc1O)C1C=CC2C12CC2 (stereo not given)	·	i	51	·	-2	-2	3	-1	eIF4H inh retest=14;PABP polyA inh retest=30
O=C(NNC(=S)NC1CCCCC1)c1ccc(Cl)s1	18	i	18	·	-20	-6	4	-4
O=C(NC1CCN(C(=O)Nc2ccc(F)cc2)CC1)c1ccc(F)cc1	5	i	-7	-7	-15	2	3	7
COc1ccc(C)cc1NC(=O)n1ncc2c(C)cccc21	3	i	-8	-13	-1	-3	-5	-1

Taken from the results shown (13 entries):
SMILES	CSC inhib	Rce1 inhib	eIF4H inh	Yeast UUG start	HIV Env fusion	PABP polyA inh	MT1-MMP act inh	MT1-MMP act inh RFP	others
CC(C)(C)[C@@H]1COC(=O)[C@@H](NC(=O)OCC2c3ccccc3-c3ccccc32)C/C=C\C[C@@H](CC(=O)NCCO)C(=O)N1	-5	·	·	-7	30	·	1	1
O=C(Nc1ccnn1C1CCN(C(=O)c2c(F)cccc2F)CC1)C1CC1	-5	i	-8	-16	-13	7	0	-4
O=[N+]([O-])c1ccccc1/C=N/Nc1nnc(-c2ccccc2)c(-c2ccccc2)n1	-5	i	-14	·	-69	-7	2	5
CC1CC(=O)N(c2ccc(C(C)C)cc2)C(=O)C1	4	i	3	-3	4	6	3	2
Cc1ccccc1N/C(SCc1cccc(Br)c1)=C(/C#N)C(N)=O	-4	i	-8	·	-4	13	-9	-13
COc1ccccc1-c1nnc(SC(C)C(=O)Nc2ccc(C(N)=O)cc2)o1 (stereo not given)	-3	i	·	·	-3	·	-1	2
COc1ccccc1C(=O)OCC(=O)NC12CC3CC(CC(C3)C1)C2	·	·	·	-9	-9	·	2	2
CN1c2ccccc2C(=O)C(=C2SCCCS2)S1(=O)=O	-23	i	-3	·	7	3	2	1
CCCNC(=O)Cn1cnc2sc(C(=O)N3CCN(c4ccc(F)cc4)CC3)c(C)c2c1=O	-2	i	1	10	-5	1	7	-3
O=C1C2C(C(=O)N1/N=C/c1cc([N+](=O)[O-])c(O)cc1O)C1C=CC2C12CC2 (stereo not given)	·	i	51	·	-2	-2	3	-1	eIF4H inh retest=14;PABP polyA inh retest=30
O=C(NNC(=S)NC1CCCCC1)c1ccc(Cl)s1	18	i	18	·	-20	-6	4	-4
O=C(NC1CCN(C(=O)Nc2ccc(F)cc2)CC1)c1ccc(F)cc1	5	i	-7	-7	-15	2	3	7
COc1ccc(C)cc1NC(=O)n1ncc2c(C)cccc21	3	i	-8	-13	-1	-3	-5	-1
